UUG fidelity: alters start codon recognition fidelity in yeast | S. cerevisiae UUG-firefly luciferase reporter, luminescence/redox ratio | activity score, % at 18.7 µM | 350,000 compounds, 0.13% hits | AID 602363;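 active = replicate mean at a twofold rise or more, about +100% in these data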;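 note: firefly luciferase made from a UUG start codon reports start codon fidelity; reporter light over untreated wells divided by growth signal over untreated wells; some hits fall short of that in this replicate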
* = called active by the depositor. This is a subset, so the mix of outcomes need not match the whole.

COCC(=O)Nc1ccc2c(c1)OC[C@H](C)N(C(=O)c1ccccc1)C[C@H](C)[C@H](OC)CN(C)C2=O
  UUG fidelity: 8.2
C[C@H]1CN([C@@H](C)CO)C(=O)c2cccc(NC(=O)Nc3ccc(C(F)(F)F)cc3)c2O[C@@H]1CN(C)Cc1ccncc1
  UUG fidelity: -1.2
O=C(C[C@H]1C[C@H]2c3cc(NC(=O)C4CCOCC4)ccc3O[C@H]2[C@H](CO)O1)NC1CCCCC1
  UUG fidelity: 0.5
C[C@@H]1CN([C@H](C)CO)C(=O)c2cccc(NS(C)(=O)=O)c2O[C@@H]1CN(C)C(=O)Nc1ccc(C(F)(F)F)cc1
  UUG fidelity: -1.3
C[C@@H]1CN([C@H](C)CO)C(=O)c2cccc(NS(=O)(=O)c3cccs3)c2O[C@@H]1CN(C)Cc1ccc(C(=O)O)cc1
  UUG fidelity: -9.2
C/C=C/c1ccc([C@H]2[C@H](CO)N[C@H]2CN(CC)C(=O)c2ccccn2)cc1
  UUG fidelity: -3.0
CC(C)NC(=O)Nc1ccc2c(c1)C(=O)N([C@@H](C)CO)C[C@H](C)[C@H](CN(C)S(=O)(=O)c1ccc(F)cc1)O2
  UUG fidelity: -5.8
O=C(Cc1ccncc1)N1CC[C@@H]2[C@H](CO)Nc3ccc(-c4ccccc4F)cc3[C@@H]21
  UUG fidelity: -6.9
CN(C)C(=O)c1ccc(-c2ccc([C@@H]3[C@@H](CO)N4CCCCN(C(=O)C5CCCC5)C[C@H]34)cc2)cc1
  UUG fidelity: 11.3
COc1cccc(CNC(=O)[C@@H]2[C@@H](CO)[C@@H]3Cn4c(cccc4=O)[C@H]2N3C(=O)C2CCC2)c1
  UUG fidelity: 8.9

Looked up above:
UUG fidelity result of C/C=C/c1ccc([C@H]2[C@H](CO)N[C@H]2CN(CC)C(=O)c2ccccn2)cc1 is entered as -3.0
UUG fidelity result of O=C(C[C@H]1C[C@H]2c3cc(NC(=O)C4CCOCC4)ccc3O[C@H]2[C@H](CO)O1)NC1CCCCC1 is entered as 0.5

(list continues)
COCC(=O)N1C[C@@H](C)[C@H](OC)CN(C)C(=O)c2ccc(NC(=O)c3ccc(-c4ccccc4)cc3)cc2OC[C@H]1C
  UUG fidelity: 4.2
Cc1cccc(-c2ccc([C@H]3[C@@H](CO)N4CCCCN(Cc5ccncc5)C[C@@H]34)cc2)c1
  UUG fidelity: -1.1
CC(C)NC(=O)N1C[C@H]2[C@@H](c3ccccc31)[C@@H](CO)N2C(=O)Nc1ccccc1
  UUG fidelity: 7.1
Cc1noc(C)c1NC(=O)N(C)C[C@@H]1Oc2c(NC(=O)Nc3ccc4c(c3)OCO4)cccc2C(=O)N([C@@H](C)CO)C[C@@H]1C
  UUG fidelity: 2.1
CC(=O)N1[C@H](C(=O)N2CCCCC2)[C@@H](CO)[C@@H]2Cn3c(ccc(C4=CCCC4)c3=O)[C@@H]21
  UUG fidelity: 11.9
O=C(C[C@H]1CC[C@H]2[C@@H](COC[C@H](O)CN2C(=O)c2cnccn2)O1)NCc1ccccc1
  UUG fidelity: 14.2
CCCNC(=O)N1C[C@@H]2[C@H](c3ccccc31)[C@@H](CO)N2C(=O)NCCC
  UUG fidelity: -4.5
O=C(Nc1cccc(Cl)c1)N1C[C@H]2[C@@H](c3ccccc31)[C@@H](CO)N2C(=O)C1CCCC1
  UUG fidelity: 25.1
COc1ccc(CN(C)C[C@@H]2Oc3c(NS(=O)(=O)c4ccc(F)cc4)cccc3C(=O)N([C@@H](C)CO)C[C@@H]2C)cc1
  UUG fidelity: 1.5
COc1ccc(S(=O)(=O)N(C)C[C@@H]2Oc3ccc(NC(=O)Cc4ccccc4)cc3C(=O)N([C@@H](C)CO)C[C@@H]2C)cc1
  UUG fidelity: 12.6

C[C@H](CO)N1C[C@H](C)[C@H](CN(C)S(=O)(=O)c2ccc(F)cc2)Oc2ccc(NC(=O)NC3CCCCC3)cc2CC1=O
  UUG fidelity: 16.9
OC[C@@H]1[C@H](c2ccc(-c3cccnc3)cc2)[C@H]2CN(Cc3ccccn3)CCCCN12
  UUG fidelity: -44.2
CO[C@H]1CN(C)C(=O)c2cc(NC(=O)C3CCC3)ccc2OC[C@@H](C)N(C(=O)CN(C)C)C[C@H]1C
  UUG fidelity: 10.2
COc1cccc(-c2ccc([C@@H]3[C@@H](CO)N4CCCCN(S(=O)(=O)c5cccs5)C[C@@H]34)cc2)c1
  UUG fidelity: -7.3
Cc1ccc(S(=O)(=O)N2C[C@@H](O)COC[C@@H]3O[C@H](CC(=O)N[C@H]4CCN(Cc5ccccc5)C4)CC[C@H]32)cc1
  UUG fidelity: 9.7
CCCC#Cc1ccc([C@H]2[C@H](CO)N3CCCCN(S(=O)(=O)c4ccccc4C)C[C@@H]23)cc1
  UUG fidelity: 3.0
O=S(=O)(c1ccc(F)cc1)N1CCCCN2[C@H](C1)[C@H](c1ccc(C#CC3CCCC3)cc1)[C@@H]2CO
  UUG fidelity: -6.6
Cn1cnc(S(=O)(=O)N2C[C@H](O)COC[C@@H]3O[C@@H](CC(=O)NCc4ccc(F)cc4)CC[C@H]32)c1
  UUG fidelity: -6.9
CCN(C[C@H]1[C@@H](c2ccccc2)[C@@H](CO)N1C(=O)COC)S(C)(=O)=O
  UUG fidelity: -7.8
CC(C)NC(=O)N1[C@@H]2CN(C)c3ccccc3[C@@H]2[C@@H]1CO
  UUG fidelity: -6.6

CO[C@@H]1CN(C)C(=O)c2cc(NC(=O)C3CCC3)ccc2OC[C@@H](C)N(C(=O)Nc2ccc(C(F)(F)F)cc2)C[C@H]1C
  UUG fidelity: 7.3
Cc1ccc(S(=O)(=O)Nc2ccc3c(c2)CC(=O)N([C@H](C)CO)C[C@H](C)[C@@H](CN(C)C(=O)NC2CCCCC2)O3)cc1
  UUG fidelity: 8.1
O=C(C1CCCCC1)N1[C@@H]2CNc3ccccc3[C@@H]2[C@@H]1CO
  UUG fidelity: -12.3
C[C@@H]1CN([C@H](C)CO)C(=O)c2cc(NC(=O)Nc3cccc4ccccc34)ccc2O[C@H]1CN(C)Cc1ccc(C(=O)Nc2ccccc2N)cc1
  UUG fidelity: -7.1
COCC(=O)Nc1ccc2c(c1)C(=O)N(C)[C@H]1CC[C@H](CC(=O)NCC(F)(F)F)O[C@@H]1CO2
  UUG fidelity: -16.7
CN(C)CC(=O)N1CC[C@@H]2[C@H](CO)Nc3ccc(-c4ccc(C(=O)N(C)C)cc4)cc3[C@@H]21
  UUG fidelity: -1.7
O=C(Nc1ccc(F)cc1)N1C[C@@H]2[C@H](c3ccccc31)[C@H](CO)N2C(=O)Cc1ccccc1
  UUG fidelity: 27.2
CCCC#Cc1ccc2c(c1)[C@@H]1[C@@H](CCN1S(=O)(=O)c1cccc(F)c1)[C@@H](CO)N2C
  UUG fidelity: 2.7
Cc1noc(C)c1S(=O)(=O)N(C)C[C@H]1Oc2c(NC(=O)c3nc4ccccc4s3)cccc2C(=O)N([C@@H](C)CO)C[C@H]1C
  UUG fidelity: -8.6
COc1ccc(NC(=O)N(C)C[C@H]2Oc3ccc(NC(=O)CCN4CCOCC4)cc3CC(=O)N([C@H](C)CO)C[C@@H]2C)cc1
  UUG fidelity: 5.9

C/C=C/c1ccc([C@@H]2[C@@H](CO)N(C(C)=O)[C@H]2CN(CC(C)C)C(C)=O)cc1
  UUG fidelity: 11.5
Cn1cnc(S(=O)(=O)N2CCCCN3[C@H](CO)[C@@H](c4ccc(C#CC5CC5)cc4)[C@H]3C2)c1
  UUG fidelity: 10.7
COCC(=O)Nc1ccc2c(c1)OC[C@@H](C)N(C(=O)Cc1ccccn1)C[C@@H](C)[C@H](OC)CN(C)C2=O
  UUG fidelity: 6.3
Cc1ccccc1S(=O)(=O)N(C)C[C@@H]1OCc2ccccc2-c2c(n(C)c3ccccc23)C(=O)N([C@H](C)CO)C[C@H]1C
  UUG fidelity: -18.9
CCCNC(=O)N1[C@H](CO)[C@@H]2c3ccccc3N(C(=O)Nc3cccc(F)c3)C[C@@H]21
  UUG fidelity: -3.5
CCN(C[C@H]1N[C@H](CO)[C@H]1c1ccc(C2=CCCC2)cc1)C(=O)c1ccncc1
  UUG fidelity: 11.0
C[C@H](CO)N1C[C@H](C)[C@@H](CN(C)C(=O)Nc2ccc3c(c2)OCO3)Oc2c(NC(=O)c3nc4ccccc4s3)cccc2C1=O
  UUG fidelity: 49.4
OC[C@@H]1[C@@H](c2ccc(-c3ccc(F)cc3)cc2)[C@H]2CN(Cc3cccnc3)CCCCN12
  UUG fidelity: -15.4
Cc1noc(C)c1NC(=O)N(C)C[C@H]1Oc2c(NC(=O)Nc3cccc4ccccc34)cccc2C(=O)N([C@H](C)CO)C[C@@H]1C
  UUG fidelity: -12.1
O=C(NCc1ccccc1)[C@H]1N[C@H]2c3ccc(-c4ccccc4)c(=O)n3C[C@H]2[C@@H]1CO
  UUG fidelity: 1.5

CO[C@@H]1CN(C)C(=O)c2cc(NC(=O)c3cc(C)on3)ccc2OC[C@@H](C)N(C(C)=O)C[C@H]1C
  UUG fidelity: 3.3
Cc1noc(C)c1S(=O)(=O)Nc1ccc2c(c1)C(=O)N([C@@H](C)CO)C[C@@H](C)[C@H](CN(C)Cc1ccc(Oc3ccccc3)cc1)O2
  UUG fidelity: 8.3
O=C(C[C@H]1CC[C@@H]2NC[C@@H](O)COC[C@H]2O1)NCCc1ccccc1
  UUG fidelity: 1.6
CO[C@H]1CN(C)C(=O)c2cc(NS(=O)(=O)c3ccccc3)ccc2OC[C@@H](C)N(Cc2cccnc2)C[C@@H]1C
  UUG fidelity: -0.8
O=C(C[C@@H]1CC[C@H]2[C@@H](COC[C@@H](O)CN2C(=O)c2ccccn2)O1)N1CCN(c2ccccc2)CC1
  UUG fidelity: 0.5
C[C@H]1CN([C@@H](C)CO)C(=O)c2cc(NC(=O)Nc3ccc(F)cc3)ccc2O[C@H]1CN(C)C
  UUG fidelity: -9.1
O=C(c1ccccn1)N1C[C@@H]2[C@H](c3ccccc31)[C@@H](CO)N2C(=O)C1CC1
  UUG fidelity: -2.2
O=C(Nc1ccccc1F)N1CCCCN2[C@H](CO)[C@H](c3ccc(C4=CCCC4)cc3)[C@@H]2C1
  UUG fidelity: 8.5
CC(C)NC(=O)N(C)C[C@@H]1Oc2ccc(NC(=O)Cc3cn(C)c4ccccc34)cc2C(=O)N([C@@H](C)CO)C[C@@H]1C
  UUG fidelity: 1.1
C[C@@H]1CN([C@@H](C)CO)C(=O)c2cc(NC(=O)Cn3cnnn3)ccc2O[C@H]1CN(C)Cc1ccc(C(=O)Nc2ccccc2N)cc1
  UUG fidelity: -11.7

CN(C)CCCNC(=O)C[C@@H]1CC[C@H]2[C@@H](COC[C@H](O)CN2S(=O)(=O)c2ccc(F)cc2)O1
  UUG fidelity: -5.1
COc1cccc(-c2ccc3n(c2=O)C[C@@H]2[C@@H](CO)[C@H](C(=O)NC4CCC4)N[C@H]32)c1
  UUG fidelity: 0.2
Cc1noc(C)c1NC(=O)N(C)C[C@H]1Oc2ccc(NC(=O)CCCCCC(=O)Nc3ccccc3N)cc2C(=O)N([C@H](C)CO)C[C@H]1C
  UUG fidelity: -1.0
COc1ccc(CN(C)C[C@@H]2Oc3ccc(NC(=O)Nc4ccc(F)cc4)cc3C(=O)N([C@@H](C)CO)C[C@H]2C)cc1
  UUG fidelity: 17.0
COCC(=O)Nc1ccc2c(c1)C(=O)N(C)C[C@H](OC)[C@@H](C)CN(C(=O)c1cnccn1)[C@@H](C)CO2
  UUG fidelity: -3.7
CCC(=O)Nc1ccc2c(c1)C(=O)N(C)C[C@@H](OC)[C@@H](C)CN(C(=O)Cc1ccccn1)[C@@H](C)CO2
  UUG fidelity: -4.7
Cc1cc(C(=O)Nc2cccc3c2O[C@@H](CN(C)C(=O)Nc2ccccc2)[C@H](C)CN([C@@H](C)CO)C3=O)n(C)n1
  UUG fidelity: -6.3
COc1ccc(NC(=O)N2CCCCN3[C@H](C2)[C@@H](c2ccc(-c4ccccc4C)cc2)[C@@H]3CO)cc1
  UUG fidelity: -1.1
CO[C@@H]1CN(C)C(=O)c2cc(NC(=O)C3CC3)ccc2OC[C@H](C)N(Cc2ccccc2)C[C@@H]1C
  UUG fidelity: -4.1
C[C@H](CO)N1C[C@H](C)[C@@H](CN(C)C)Oc2ccc(NC(=O)CCCCCC(=O)Nc3ccccc3N)cc2CC1=O
  UUG fidelity: 7.0

4 successive records out of the list so far, quoted:
CN(C)CCCNC(=O)C[C@@H]1CC[C@H]2[C@@H](COC[C@H](O)CN2S(=O)(=O)c2ccc(F)cc2)O1
  UUG fidelity: -5.1
COc1cccc(-c2ccc3n(c2=O)C[C@@H]2[C@@H](CO)[C@H](C(=O)NC4CCC4)N[C@H]32)c1
  UUG fidelity: 0.2
Cc1noc(C)c1NC(=O)N(C)C[C@H]1Oc2ccc(NC(=O)CCCCCC(=O)Nc3ccccc3N)cc2C(=O)N([C@H](C)CO)C[C@H]1C
  UUG fidelity: -1.0
COc1ccc(CN(C)C[C@@H]2Oc3ccc(NC(=O)Nc4ccc(F)cc4)cc3C(=O)N([C@@H](C)CO)C[C@H]2C)cc1
  UUG fidelity: 17.0

Further entries:
C[C@H](CO)N1C[C@H](C)[C@@H](CN(C)Cc2ccc(Oc3ccccc3)cc2)Oc2ccc(NC(=O)c3ccncc3)cc2CC1=O
  UUG fidelity: 2.5
C[C@@H]1CN([C@H](C)CO)C(=O)c2cccc(NC(=O)C3CC3)c2O[C@H]1CN(C)CC1CC1
  UUG fidelity: -6.2
COCC(=O)N1[C@@H](CO)[C@H](c2ccccc2)[C@@H]1CNC(=O)c1ccccn1
  UUG fidelity: -3.3
CC(C)NC(=O)N1CCCCN2[C@H](C1)[C@@H](c1ccc(Br)cc1)[C@@H]2CO
  UUG fidelity: 12.5
CN1CCCCN2[C@H](C1)[C@@H](c1ccc(-c3ccc(F)cc3)cc1)[C@@H]2CO
  UUG fidelity: -11.8
CCCNC(=O)C[C@@H]1C[C@H]2c3cc(NC(=O)Nc4ccc(OC)cc4)ccc3O[C@H]2[C@H](CO)O1
  UUG fidelity: -0.9
C[C@@H]1CN([C@H](C)CO)C(=O)c2cc(NC(=O)CCCCCC(=O)Nc3ccccc3N)ccc2O[C@H]1CN(C)C
  UUG fidelity: -6.3
Cc1cccc(-c2ccc([C@@H]3[C@H]4CN(Cc5cncnc5)CCCCN4[C@H]3CO)cc2)c1
  UUG fidelity: -11.5
C[C@@H]1CN([C@H](C)CO)C(=O)c2cccc(NS(=O)(=O)c3cccs3)c2O[C@H]1CN(C)C
  UUG fidelity: 4.2

Source: PubChem (Broad Institute)
